# Screens deposited in PubChem BioAssay by several laboratories.
# AF4-AF9 inh: inhibitors of human MLL-AF4/AF9 interaction | P42568 | AlphaScreen, biotin-AF4 peptide binding to FLAG-AF9 | inhibition, % at 10 µM | 0.47% of 350,000 active | AID 651704;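 active means every replicate reaching a set inhibition limit, whatever the replicate mean, cut at about 25% in these data; inconclusive means mean inhibition reaches that limit but some replicates miss it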;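 further: 0% = plate neutral control median and 100% = total signal loss; the record names both 10 and 1 µM as test concentration; the first replicate is given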
# Target sequence (P42568 whole entry, looked up): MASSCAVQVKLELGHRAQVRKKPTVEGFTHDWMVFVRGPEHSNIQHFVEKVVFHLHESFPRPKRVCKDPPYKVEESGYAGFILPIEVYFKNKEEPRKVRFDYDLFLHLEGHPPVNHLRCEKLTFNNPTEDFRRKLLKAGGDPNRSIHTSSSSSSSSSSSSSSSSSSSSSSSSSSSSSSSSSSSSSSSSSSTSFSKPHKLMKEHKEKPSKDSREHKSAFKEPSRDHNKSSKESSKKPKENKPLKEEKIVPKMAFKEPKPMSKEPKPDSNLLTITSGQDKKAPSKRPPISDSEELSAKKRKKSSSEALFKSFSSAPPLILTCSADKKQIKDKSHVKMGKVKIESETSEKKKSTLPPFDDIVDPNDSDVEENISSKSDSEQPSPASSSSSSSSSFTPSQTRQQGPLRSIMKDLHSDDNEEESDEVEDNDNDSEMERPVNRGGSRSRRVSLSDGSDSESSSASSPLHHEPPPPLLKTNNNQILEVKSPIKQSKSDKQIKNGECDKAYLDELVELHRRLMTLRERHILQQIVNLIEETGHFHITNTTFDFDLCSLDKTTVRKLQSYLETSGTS
# Beta apoptosis: blocks beta cell apoptosis. INS-1E cytokine-induced death, ATP luminescence, 48 h; percent of positive-control rescue, neutral wells zero. protection from apoptosis, % (concentration not given with the values). 0.8% of 300,000 active. AID 435005;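 active means all replicates at 75% or more, or half of them and the mean; inconclusive means half reach 75% but not the mean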;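 further: 0% = cytokine-treated negative control wells and 100% = positive control rescue; higher means more ATP so stronger rescue from cytokine killing; wells of about 40 µL received 100 nL stock; the first replicate is given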
# RanGTP-Imp inh: inhibitors of RanGTP-importin-beta interaction, primary screen, biochemical, FRET, CFP-Ran, YFP-importin-beta, homogeneous. cell-free CFP-Ran/YFP-importin-beta FRET ratio. inhibition, % (test concentration not listed). 1.1% of 300,000 active;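 active means most replicates above 15%; inconclusive means exactly half above 15%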;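 further: 0% = DMSO wells and 100% = Ran loaded with GDP instead of GTP; wells of about 40 µL received 100 nL stock; the first replicate is given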
# Vif A3G: inhibitors of Vif binding to APOBEC3G peptide, primary screen, biochemical, TR-FRET, GST-Vif 1-94, biotin-A3G peptide, dose response retest (AID 1117319); inhibition, %; hits with a dose series show IC50 in µM; 0.57% of 260,000 active; TR-FRET GST-Vif / biotin-A3G peptide binding; higher % means a stronger effect; test concentration not given here; strong numbers were not always called active;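 active means above the screen mean plus three standard deviations and confirmed in dose response; inconclusive means results disagree or hit not tested in dose response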;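 further: Vif residues 1-94 fused to GST binding biotinylated APOBEC3G peptide 110-148; 0% = full assay without inhibitor and 100% = GST in place of GST-Vif; retest series ran down from 100 µM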
# T cruzi repl: blocks replication of Trypanosoma cruzi; T. cruzi beta-gal in NIH3T3, luminescence, 90 h; inhibition, % (concentration not given with the values); 1.4% of 300,000 active; AID 1885;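 active means mean inhibition across valid replicates above about 55%, limit read from the data; inconclusive means mean below that limit but half or more replicates reach it; inactive means mean below it, under half of replicates reach it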;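 further: signal also drops with host cell toxicity which is not excluded here; 0% = plate median of DMSO wells and 100% = zero luminescence signal; higher percent means less beta-gal luminescence so fewer parasites; stock transfer was 50 nL into about 50 µL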
# Calb FLC: C. albicans growth modulation with fluconazole; C. albicans CaCi-2 (fluconazole-resistant clinical isolate) + fluconazole, Alamar Blue growth, 48 h; growth inhibition, % (test concentration not listed); 0.57% of 300,000 active;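 active means most replicates above 75%; inconclusive means exactly half above 75%; inactive means most below 75%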;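 further: all wells also contain fluconazole at 8 µg/ml as a sub-toxic cotreatment; 0% = median of DMSO wells and 100% = median of geldanamycin control wells; wells of about 8 µL received 7.5 nL stock; the first replicate is given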
# rRNA inh HTS: inhibitors of bacterial rRNA selective over humanized ribosomes; E. coli WT GFP vs humanized-ribosome RFP mutants, fluorescence, 24 h; active compounds read low; DMSO median 0, no signal -100; GFP signal change (wild-type ribosome), % (test concentration not listed); 1.6% of 350,000 active; AID 720706;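 active means significant combined selectivity score with lowered wild-type GFP, culture density cut under 30%, mutant RFP and density less affected; inactive means any of these conditions unmet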; further: one replicate is shown; some compounds called inactive have numbers as strong as hits
# Bfl-1 A1 inh: inhibitors of the anti-apoptotic protein A1, read as caspase activation | MEF A1-2A-BIM cells, Caspase-Glo 3/7 luminescence, 3 h; percent of clofoctol response, vehicle zero | caspase activation, % (concentration not given with the values) | 0.066% of 330,000 active | AID 2462;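 active means over half of replicate activation scores above 10%, or exactly half above 10 with the replicate mean above 10; inconclusive means replicate mean below 10 yet half the replicates above 10; inactive means over half of replicates below 10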;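 further: wells of about 30 µL received 50 nL stock; many hits fall short of the cut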
# rRNA inh HTS OD600: second read-out of rRNA inh HTS, no call of its own (marks repeat the call); OD600 change, %; measured here: OD600 growth;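 optical density of the mix in the first replicate; 0 = DMSO median and -100 = no signal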
# rRNA inh HTS RFP: also measured in rRNA inh HTS; calls as there; RFP signal change, %; measured here: RFP humanized mutant strains;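 first replicate; 0 = DMSO median and -100 = no signal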
# Starred values were filed as active, the others as inactive; ? = inconclusive; . = no result given. Not all compounds are listed, so the mix of outcomes need not match the whole.
SMILES,AF4-AF9 inh,Beta apoptosis,RanGTP-Imp inh,Vif A3G,T cruzi repl,Calb FLC,rRNA inh HTS,rRNA inh HTS OD600,rRNA inh HTS RFP,Bfl-1 A1 inh
COc1cc2c(cc1OC)C(c1ccccc1)N(C(=O)c1cccc(S(C)(=O)=O)c1)CC2 (stereo unspecified),-5.6,9,-0.4,.,-4,6,-9,0,8.3,-0.1
O=C(Nc1nnc(SCC(=O)N2CCOCC2)s1)C1CC(=O)N(c2ccccc2)C1 (stereo unspecified),1.2,-1,-1.8,5%,6,-1,4,9,0.6,-0.4
CC1CC(C)CN(c2nc3c(c(=O)n(C)c(=O)n3C)n2CCSc2ncccn2)C1 (stereo unspecified),1.7,1,4.9,1%,6,-3,9,7,-1.6,-0.4
O=C(/C=C/Nc1ccccc1)c1ccccc1,.,-11,4.7,9%,-7,6,.,.,.,-11
Cc1ccc(CNC(=O)C2CCN(S(=O)(=O)c3cccs3)CC2)cc1,-0.3,-8,7.5,.,-5,-5,0,3,0.1,0.1
Cc1c(C(=O)NCc2ccco2)cccc1[N+](=O)[O-],.,-12,-2.5,?,-9,-20,.,.,.,0.3
CCn1c(SCC(=O)Nc2cc(OC)ccc2OC)nnc1C1CCCCC1,.,0,?,19%,8,12,.,.,.,-0.3
CCOC(=O)Nc1cccc(Cl)c1C,.,-5,-0.3,3%,-2,-11,.,.,.,-0.4
Cc1cccc(CN2CCN(c3nc4nonc4nc3NC3CC3)CC2=O)c1,-8.6,-20,-0.7,5%,6,9,4,1,-2.5,0.9
CC(=O)N1CCOc2ccc(S(=O)(=O)N3CCC(C(=O)Nc4cc(C)ccc4C)CC3)cc21,1.8,4,-2.1,.,-6,-3,3,9,-0.8,0.3
COCC(=O)N(C)C1(c2nnnn2CCOC(=O)Nc2ccc(Cl)cc2)CCCC1,.,2,1.2,0%,-5,3,.,.,.,-0.4
COc1cc(OC)cc(-c2nnc(NC(=O)Cc3ccc(F)cc3)o2)c1,-0.4,0,-0.1,-2%,-8,-2,-3,11,-1.9,-0.4
COc1ccc(C2(CNC(=O)c3ccc(OC)c([N+](=O)[O-])c3)CCOCC2)cc1OC,.,-6,2.2,6%,-3,-11,.,.,.,-0.7
O=C(O)CCCC(=O)Nc1ccccc1Br,.,0,4.9,?,-12,4,.,.,.,-0.8
Cc1cccc(-n2c(CCc3ccccc3)nnc2SCC(=O)c2ccccc2)c1,.,-1,-0.5,4%,31,-3,.,.,.,0.0
Cc1nn(-c2ccccc2)c(Cl)c1/C=N/NC(=O)c1ccnn1C,4.3,0,?,-8%,-10,1,11,8,1.1,-15
COc1ccc(CNC(=O)CN(C2CCCCC2)S(C)(=O)=O)cc1,.,5,-2.6,1%,-16,-7,.,.,.,-0.3
Cc1ccc(N2C(=O)c3ccccc3C2Nc2ccccc2)nc1 (stereo unspecified),2.2,3,4.2,-1%,10,3,6,-14,-4.0,0.4
Cn1c(=O)cc(SCC(=O)NCCCN2CCN(c3ccc(F)cc3)CC2)c2ccccc21,.,-4,-1.9,-5%,10,-29,.,.,.,-0.1
COCCCNc1nc2ccccc2nc1NS(=O)(=O)c1cccs1,.,2,0.3,-7%,-5,19,.,.,.,0.4

# Full records as entered above. Screens in order: AF4-AF9 inh | Beta apoptosis | RanGTP-Imp inh | Vif A3G | T cruzi repl | Calb FLC | rRNA inh HTS | rRNA inh HTS OD600 | rRNA inh HTS RFP | Bfl-1 A1 inh
# `O=C(/C=C/Nc1ccccc1)c1ccccc1` across the screens: . | -11 | 4.7 | 9% | -7 | 6 | . | . | . | -11
# `O=C(O)CCCC(=O)Nc1ccccc1Br` across the screens: . | 0 | 4.9 | ? | -12 | 4 | . | . | . | -0.8

# The listing continues.
SMILES,AF4-AF9 inh,Beta apoptosis,RanGTP-Imp inh,Vif A3G,T cruzi repl,Calb FLC,rRNA inh HTS,rRNA inh HTS OD600,rRNA inh HTS RFP,Bfl-1 A1 inh
Cc1ccc(-n2cc(CN3CCN(Cc4nccn4C)CC3)c(-c3ccc(F)cc3)n2)cc1,21,2,3.3,-2%,18,-43,-19,-17,3.5,0.4
O=C(COc1ccc(C(=O)c2ccccc2)cc1)NCc1ccc(F)cc1,.,0,4.7,.,-16,27,.,.,.,-0.3
COc1cccc(CNc2ccc(S(=O)(=O)N3CCCC3)cn2)c1,1.9,-1,.,.,.,.,2,-2,0.6,1.0
CC(NC(=O)c1ccccc1Br)c1nnc(SCc2ccc([N+](=O)[O-])cc2)n1C (stereo unspecified),1.4,-7,-3.1,?,0,5,5,1,-1.1,1.3
Cc1cc(=O)n2nc(N3CCCC(C(=O)N4CCN(c5ccccc5)CC4)C3)sc2n1 (stereo unspecified),.,-1,5.2,10%,-6,-5,.,.,.,-0.4
Cc1ccc2[nH]c(=O)cc(C(=O)OCC(=O)c3ccc(F)cc3)c2c1,-1.9,-10,2.2,-5%,-8,-7,12,8,0.7,-0.5
CC1CCN(c2ccccc2NC(=O)c2cc([N+](=O)[O-])ccc2N2CCOCC2)CC1,5.8,18,7.4,.,27,0,-3,-6,-0.3,-0.2
CC(=O)OC[C@H]1O[C@@H](O/N=C(\C)CCN2CCCCc3nc(C)c(C)cc32)[C@H](OC(C)=O)[C@@H](OC(C)=O)[C@@H]1OC(C)=O,.,-13,0.0,?,10,-2,.,.,.,1.6
CCCCCC(=O)NC(=S)Nc1ccccc1C(=O)OC,.,-5,-0.1,?,-14,2,.,.,.,-0.4
O=C(c1ccco1)N(Cc1cc2ccccc2[nH]c1=O)CC1CCCO1 (stereo unspecified),.,-7,1.7,3%,7,3,.,.,.,0.0
c1cnc2ccc(C(c3nnnn3C3CCCCC3)N3CCCCC3)cc2c1 (stereo unspecified),.,6,0.7,1%,-2,-4,.,.,.,1.1
O=C(Oc1cccc(C(=S)N2CCCCC2)c1)c1ccccc1,4.0,.,0.2,10%,-2,-12,-17,-7,1.7,1.0
CCc1nc(SCC(=O)Nc2cc(C)on2)n[nH]1,.,.,-5.1,5%,-6,9,.,.,.,-0.3
CCOc1ccc(Nc2nc(Cl)nc(N3CCN(c4ccc(OC)cc4)CC3)n2)cc1,?,9,-6.2,6%,19,25,1,-1,-2.9,-0.7
CN(C)c1nc2c(c(=O)n(C)c(=O)n2C)n1Cc1ccccc1,.,.,-3.0,25%,-8,-14,.,.,.,0.2
Cn1nccc1NC(=O)CSCC(=O)O,-1.2,.,-1.5,-4%,-23,-3,29,5,-0.1,1.5
Nc1ccc(Br)cc1C(=O)O,-8.8,-2,6.4,-2%,-3,-3,2,-4,0.0,-0.1
O=C(NCc1ccco1)C(c1ccccc1)N(Cc1ccccc1)C(=O)Cn1nnc2ccccc21 (stereo unspecified),.,-6,-2.0,.,6,-3,.,.,.,0.1
CCOc1ccccc1/C=N/NC(=O)c1cccc(Cl)c1,.,0,-2.8,-7%,-12,-6,.,.,.,2.8
COc1ccc(CCNCC(O)Cn2ccc3ccccc32)cc1OC (stereo unspecified),2.6,.,0.2,-3%,21,1,4,6,3.9,0.1
O=C1CCC(C(=O)OC(C(=O)Nc2cc(Cl)cc(Cl)c2)c2ccccc2)=NN1 (stereo unspecified),-0.7,5,.,2%,.,.,.,.,.,-1.2
COCCn1c(-c2ccc3ccccc3c2)nc2c1c(=O)[nH]c(=O)n2CC(C)C,1.4,-1,3.3,-16%,5,8,4,12,-0.8,-0.6
CCNc1sc(C(=O)OCC)c(N)c1C#N,-0.4,2,1.1,7%,-6,8,5,1,-6.4,1.8
COc1ccc(C(=O)COC(=O)c2cc3ccccc3oc2=O)c(OC)c1,2.0,-4,0.5,-20%,-5,.,19,13,-0.8,-3.9
O=c1cc(-c2ccccc2)[nH]c2[nH]n(-c3ccccc3)c(=O)c12,.,-13,1.8,24%,12,-25,.,.,.,1.5
Cc1ccc(S(=O)(=O)/N=C(\N)c2ccc(F)cc2)cc1,0.2,-5,-0.3,32%,-12,-4,24,19,2.9,0.5
COCCNC(=O)C(=O)NCC1OCCN1S(=O)(=O)c1ccc2c(c1)OCCO2 (stereo unspecified),-3.3,-7,1.5,.,8,-14,10,3,-4.7,0.8
CC(=O)NC(CCS(C)(=O)=O)C(=O)Nc1cc(Cl)ccc1Cl (stereo unspecified),-1.6,0,-7.8,1%,-14,-4,-3,11,-6.9,0.3
CC1CCN(S(=O)(=O)c2cccc(S(=O)(=O)N3CCOCC3)c2)CC1,.,-3,-1.2,-1%,-4,0,.,.,.,0.2
CC12CCC(c3c(CO)nn(-c4ccccc4)c31)C2(C)C (stereo unspecified),.,-2,1.6,-2%,2,10,.,.,.,0.0
CC1CC(C)CN(C(=O)COC(=O)CN2C(=O)c3ccccc3C2=O)C1 (stereo unspecified),-2.1,-8,.,-4%,.,.,7,8,1.6,-0.2
CC12CCC(C(=O)Nc3cccc(Cl)c3)(C(Br)C1=O)C2(C)C (stereo unspecified),-5.6,1,6.2,-9%,20,7,-11,-10,4.3,0.5
CC(C)(C)[C@@H]1C=C(C(=O)O)O[C@H](OCCCCO)C1,-7.1,-3,2.1,.,-12,4,-2,-8,2.0,1.1
CC1CCCCN1S(=O)(=O)c1ccc(S(=O)(=O)N2CCN(C)CC2)cc1 (stereo unspecified),4.3,-6,-2.7,.,8,-20,6,16,-1.2,-0.1
COc1ccc(N2CCN(C3CCCN(Cc4ccc(F)cc4)C3)CC2)cc1 (stereo unspecified),10,3,-2.1,.,51,-2,7,1,-0.2,-0.8
CCCCOC(=O)Nc1ccc(S(=O)(=O)Nc2cc(C)nc(C)n2)cc1,2.1,-1,-0.6,-1%,5,-3,1,-1,-2.4,0.0
CNC(=S)N1N=C(c2ccc(OC)cc2)CC1c1ccccc1Cl (stereo unspecified),.,.,6.6,-11%,19,2,6,5,0.5,0.5
N=c1c(-c2nc3ccccc3[nH]2)cc(C(=O)c2cccs2)nn1-c1ccc(Cl)cc1,.,37,-0.8,.,43,1,.,.,.,-1.7
CC(/C=C/c1ccccc1)=N\NC(=O)c1ccc(Br)cc1,-2.3,15,-1.5,3%,44,-1,4,-2,-2.7,0.2
Fc1ccc(CN2CCN(c3ncnc4scc(-c5ccc(F)cc5)c34)CC2)cc1,4.0,21,4.0,-9%,26,-10,-63,-71,-17,0.9
Cc1sc2nc(CSC(C)C(=O)Nc3ccc(C#N)cc3)[nH]c(=O)c2c1C (stereo unspecified),-1.1,1,-2.9,13%,-6,4,0,0,1.4,-0.7
COc1cccc(CCNc2ccc(N3C(=O)CC(C)C3=O)cc2[N+](=O)[O-])c1 (stereo unspecified),11,2,-0.7,-5%,-6,1,-3,0,1.8,0.2
Cc1onc(-c2c(Cl)cccc2Cl)c1C(=O)O/N=C(\C#N)c1c(Cl)cccc1Cl,4.8,-9,1.6,22%,-10,-1,-8,-6,-3.0,-1.6
O=C(/C=C/c1ccccc1Cl)NCc1ccco1,.,-8,6.4,1%,4,16,.,.,.,-0.1
